# Mtb betalactam – beta-lactam sensitization of Mtb H37Rv, H37Rv; M. tuberculosis H37Rv growth with meropenem, percent inhibition; hits of this screen are not shown here; inhibition, % at 25 µM; 330,000 tested, 0.27% active; AID 434955, 2010;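 active = about 74% or more and at least 40 points above the plate without the antibiotic, then above 30% in a dose series; inconclusive = first-round hits that could not be retested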;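 note: growth measured after seven days incubation then overnight dye step; 0% = bacteria only wells and 100% = bacteria with antibiotic; twin plates without the antibiotic show which effects depend on it; some results filed as inactive read as strong as hits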
# Mtb growth – M. tuberculosis H37Rv growth inhibitors, H37Rv strain (AID 1626); 220,000 tested, 0.95% active; M. tuberculosis H37Rv growth inhibition; higher % means a stronger effect; inhibition, % at 10 µM, or IC50 in µM where a hit was titrated;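 active = confirmed in a dose series; inconclusive = inhibition above 80% but not taken into the dose series; inactive = below 80% or under 30% at every dose of the series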;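 note: bacteria incubated seven days before Alamar blue readout; 0% = bacteria only wells and 100% = bacteria with antibiotic wells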
# RecA intein inh – Mtb RecA intein splicing inhibitors, primary screen, biochemical, fluorescence, HTS. Protein RecA (Mycobacterium tuberculosis (strain ATCC 25618 / H37Rv)), P9WHJ3. cell-free RecA intein splicing. inhibition, %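 (about 9 µM by stock and volumes)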. 290,000 tested, 0.75% active. AID 2221, 2009; in the data active = inhibition above about 30%; inconclusive = no clear call, values can overlap the other calls;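 note: 0% = vehicle wells and 100% = reference inhibitor control wells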
# Target sequence (P9WHJ3 whole entry, looked up): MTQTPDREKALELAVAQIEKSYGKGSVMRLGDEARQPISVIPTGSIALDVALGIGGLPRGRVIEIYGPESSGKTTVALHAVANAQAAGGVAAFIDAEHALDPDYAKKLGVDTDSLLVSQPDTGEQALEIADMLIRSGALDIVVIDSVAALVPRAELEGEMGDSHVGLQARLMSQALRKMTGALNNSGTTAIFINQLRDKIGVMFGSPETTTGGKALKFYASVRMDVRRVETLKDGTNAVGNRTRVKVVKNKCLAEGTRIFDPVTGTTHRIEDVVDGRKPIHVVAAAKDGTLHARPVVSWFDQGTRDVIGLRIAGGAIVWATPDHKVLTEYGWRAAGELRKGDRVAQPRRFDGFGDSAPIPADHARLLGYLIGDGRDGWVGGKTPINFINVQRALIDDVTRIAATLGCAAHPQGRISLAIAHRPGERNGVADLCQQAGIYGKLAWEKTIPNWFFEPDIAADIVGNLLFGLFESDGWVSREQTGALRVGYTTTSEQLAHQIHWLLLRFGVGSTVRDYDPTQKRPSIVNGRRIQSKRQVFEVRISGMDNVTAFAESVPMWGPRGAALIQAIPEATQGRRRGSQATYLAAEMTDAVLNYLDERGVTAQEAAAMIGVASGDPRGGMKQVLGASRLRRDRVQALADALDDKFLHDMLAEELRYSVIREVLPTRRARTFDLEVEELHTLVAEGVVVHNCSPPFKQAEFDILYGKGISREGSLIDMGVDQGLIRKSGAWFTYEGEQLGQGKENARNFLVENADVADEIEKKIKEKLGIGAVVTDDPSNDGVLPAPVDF
# Arbovirus inh – antivirals against arbovirus infection, primary screen, cell-based, full library, 10K replicate subset | inhibition, % at 10 µM | AID 1251, 2008 | arbovirus infection cell-based antiviral screen | 200,000 tested, 0.37% active;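 active = inhibition from about 30%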;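 note: bluetongue infection of BSR cells; cell survival read as ATP light after 72 h; 0% = infected wells without compound and 100% = uninfected wells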
# YopH inh – YopH tyrosine phosphatase inhibitors, primary screen, biochemical, fluorescence Ex485/Em525; YopH tyrosine phosphatase [Yersinia enterocolitica]; inhibition, %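 (about 10 µM by stock and volumes)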; 140,000 tested, 0.16% active; AID 898, 2007;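 active = inhibition of 50% or more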;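 note: controls were vehicle for no effect and minimum signal wells for full effect; inactives centre near -20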
# Arbovirus inh repeat – further read-out of Arbovirus inh, marked with its call; inhibition, %; measured here: 10K subset replicate screen; many hits read low in the repeat;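 first of two repeat runs on a subset; 0% = infected and 100% = uninfected wells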
# Active calls of the source: *; ? = inconclusive; . = no result given.
SMILES,Mtb betalactam,Mtb growth,RecA intein inh,Arbovirus inh,YopH inh,others
Cc1cccc(C)c1NC(=O)CSc1nnc(-c2cccnc2)o1,3,-5%,-2.5,3,.,
CCN(CC)S(=O)(=O)c1ccc(S(=O)(=O)N2CCN(C(=O)c3ccco3)CC2)cc1,4,7%,0.3,-6,-21,
CC1CCCC(C)N1CC(O)Cn1c2ccccc2c2ccccc21 (stereo not drawn),10,.,-0.7,.,.,
COc1ccc(S(=O)(=O)N2CCOC2CNC(=O)C(=O)NCCN2CCOCC2)cc1C (stereo not drawn),-7,.,-2.8,.,.,
O=C(NNC(=O)c1csc(-c2cnccc2C(F)(F)F)n1)c1ccc(C(F)(F)F)cc1,66,-2%,.,.,.,
CCN(CC)CCCN1C(=O)C(O)=C(C(=O)c2ccco2)C1c1ccc(OC(C)C)cc1 (stereo not drawn),-7,45%,1.4,-2,-10,
N#C/C(=C(/O)CCl)c1nc2ccccc2[nH]1,99,70%,-3.9,-29,.,
Cc1ccc(S(=O)(=O)NC(C)c2ccccc2)cc1[N+](=O)[O-] (stereo not drawn),-3,.,-0.3,.,.,
O=C(Cc1ccc2c(c1)OCCO2)N1CCN(S(=O)(=O)c2cccs2)CC1,-8,1%,-2.1,-2,.,
NC(=O)CSc1nnc(NC(=O)c2ccc(S(=O)(=O)N3CCCCC3)cc2)s1,-9,.,-3.5,.,.,
Cc1ccc(C(=O)NCC(=O)N/N=C/c2cccs2)cc1[N+](=O)[O-],-2,1%,-1.5,7,.,
O=S(=O)(c1ccc(Oc2ccc(Br)cc2)cc1)N1CCOCC1,3,9%,-0.5,-11,-23,
Cc1ccc(NCc2ccccc2O)cc1,17,55%,-2.2,-4,-5,
CCOc1ccc(NC(=O)Nc2cccs2)cc1,1,1%,1.1,-1,-9,
O=c1[nH]c2ccc(N=Cc3c(O)ccc4cc(Br)ccc34)cc2[nH]1,.,-12%,-10,25,-12,
O=C(Nc1cccc(-c2ccccc2)c1)N1CCN(C(=O)Nc2cccc(-c3ccccc3)c2)CC1,-7,-14%,-1.2,.,.,
NS(=O)(=O)c1ccc(NC(=O)COC(=O)C2(c3ccc(F)cc3)CCCC2)cc1,1,1%,-0.6,18,-30,
COc1ccc(C(=O)NCCc2cnc[nH]2)cc1OC,7,.,-1.7,.,.,
CC(C)c1ccc(NC(=O)CCS(=O)(=O)c2cccc3nonc23)cc1,24,.,1.4,.,.,
Cc1ccc(-c2cn3cccnc3n2)cc1NC(=O)c1c(-c2ccccc2Cl)noc1C,10,.,0.5,-23,-32,
Cc1ccccc1S(=O)(=O)Cc1ccc(C(=O)NCCN(Cc2ccccc2)C(C)C)o1,4,.,1.2,.,.,
NC(=S)N/N=C/c1ccc(C(F)(F)F)cc1,85,38%,-2.9,-12,-25,
Cc1ccc(CS(=O)(=O)CCC(=O)O)cc1,0,-5%,-2.9,2,.,
CN(C)CC[n+]1ccc(C(=O)c2ccccc2)cc1,0,.,-6.3,.,.,
CCCCOC(=O)C1C2C=C[C@]3(CN(CCCOC)C(=O)[C@H]13)O2 (stereo partly drawn),1,-13%,0.5,-4,-36,
CC(C)C(=O)N1CCN(c2cc(N3CCN(C)CC3)c(F)cc2[N+](=O)[O-])CC1,-2,2%,1.5,10,.,
Cn1c(SCC(=O)N2CCCC2)nnc1-c1ccc(S(=O)(=O)N2CCCC2)cc1,4,11%,-1.5,4,-7,
CCOC(=O)C1CCN(CC(O)COc2ccc(C(C)(C)C)cc2)CC1 (stereo not drawn),90,-4%,0.7,17,-3,
COc1ccc(NCc2cc(=O)[nH]c3ccccc23)cc1,-1,.,-5.0,.,.,
O=C(CSc1ccsc1[N+](=O)[O-])NCCc1ccccc1,-6,-5%,0.8,1,-22,
O=C(NCc1ccc(Cl)cc1Cl)C1CCN(S(=O)(=O)c2ccc3c(c2)OCCCO3)CC1,-5,7%,-0.2,19,-18,
COC(=O)c1cc(Br)c(=O)n(-c2ccc(OC)cc2)c1,-9,0%,0.0,-8,-134,
CCN(CC)C(=O)Cn1cc(C=C2C(=O)N(C)C(=O)N(C)C2=O)c2ccccc21,4,.,0.1,.,.,
CC(C)(C)CN1CCC(Oc2cccc(C(=O)N3CCC[C@H]3CO)c2)CC1,-5,.,1.8,.,.,
CCCNC(=O)C(=O)c1cccn1-c1ccsc1C(=O)OC,-8,-9%,-1.5,0,-44,
COc1ccc(CCN2CN(S(=O)(=O)c3ccccc3)c3nc4ccccc4nc32)cc1,8,-8%,2.0,-2,-23,
O=C(COc1ccc(Cl)cc1Cl)N/N=C/c1ccc[nH]1,1,.,3.0,.,.,
COc1ccc(CN(C)C(=O)C(Cc2ccccc2)NC(=O)c2ccccc2)c(OC)c1 (stereo not drawn),1,.,5.8,.,.,
CCOC(=O)CN1C(=O)SC(CC(=O)Nc2nccs2)C1=O (stereo not drawn),-17,-6%,-3.4,0,-12,
Cc1nn(-c2cc(Cl)ccc2N)c(=O)c2ccccc12,0,-8%,-3.5,6,-39,

# 5 compounds from above, sorted by formula weight, falling.
SMILES,Mtb betalactam,Mtb growth,RecA intein inh,Arbovirus inh,YopH inh,others
COc1ccc(CN(C)C(=O)C(Cc2ccccc2)NC(=O)c2ccccc2)c(OC)c1 (stereo not drawn),1,.,5.8,.,.,
CC(C)(C)CN1CCC(Oc2cccc(C(=O)N3CCC[C@H]3CO)c2)CC1,-5,.,1.8,.,.,
CCOC(=O)CN1C(=O)SC(CC(=O)Nc2nccs2)C1=O (stereo not drawn),-17,-6%,-3.4,0,-12,
CCCNC(=O)C(=O)c1cccn1-c1ccsc1C(=O)OC,-8,-9%,-1.5,0,-44,
Cc1ccc(CS(=O)(=O)CCC(=O)O)cc1,0,-5%,-2.9,2,.,

# Molecules listed so far with a CF3 group, in the order listed:
SMILES,Mtb betalactam,Mtb growth,RecA intein inh,Arbovirus inh,YopH inh,others
O=C(NNC(=O)c1csc(-c2cnccc2C(F)(F)F)n1)c1ccc(C(F)(F)F)cc1,66,-2%,.,.,.,
NC(=S)N/N=C/c1ccc(C(F)(F)F)cc1,85,38%,-2.9,-12,-25,

# Later entries
SMILES,Mtb betalactam,Mtb growth,RecA intein inh,Arbovirus inh,YopH inh,others
CCn1c(SCCN2CCCCC2)nnc1-c1ccc(S(=O)(=O)N2CCOCC2)cc1,-1,-5%,-1.4,2,-28,
CC(=O)c1cc(CN2CCC(n3nccc3NC(=O)c3ccccc3Cl)CC2)cs1,-4,.,-1.1,.,.,
COc1ccc(N(CC(=O)Nc2ccccc2F)S(=O)(=O)c2ccc(OC)c(OC)c2)cc1,1,.,2.7,.,.,
CN(C)c1nc(Oc2ccc(C(=O)OCC(=O)Nc3ccccc3)cc2)nc(N(C)C)n1,-11,11%,4.0,9,-12,Arbovirus inh repeat=0
C=CCn1c(COc2ccccc2)nnc1SCC(=O)N/N=C/c1ccc(C)cc1,-7,-5%,0.5,-6,-16,
COc1ccc([N+](=O)[O-])cc1NC(=O)Cn1ccsc1=N,5,2%,-1.4,0,-30,
COc1ccc(NC(=O)/C=C/c2ccco2)cn1,-12,5%,-2.9,-4,.,
Cc1cc(C)c2nc(NNC(=O)c3ccc(S(=O)(=O)N4CC(C)CC(C)C4)cc3)sc2c1 (stereo not drawn),-3,-6%,-8.7,-34,3,
O=C(NNC(=O)C1CC(c2cccs2)=NO1)Nc1ccccc1 (stereo not drawn),-3,.,-0.7,.,.,
Cc1ccc(/C=C/C(=O)Nc2cc(S(N)(=O)=O)ccc2O)cc1,26,3%,2.8,11,.,
O=C(O)c1ccc2c(c1)C(=O)N(c1cccc3ccccc13)C2=O,0,.,-0.9,.,.,
O=C(CNCc1ccc(Cl)cc1)Nc1ccc(C(=O)N2CCCCCC2)cc1,8,.,3.1,.,.,
Cc1cc(CNC(=O)Cc2ccc(F)cc2)c2ccccc2n1,-7,0%,-3.2,2,.,
COc1ccc(-c2cc(=O)n(CCC#N)[nH]2)cc1,-4,2%,97*,-11,-30,
CC(/C=N/N1CCN(c2ccc(C)cc2)CC1)=C\c1ccccc1,6,5%,4.8,-5,-39,
Cc1ccc(C)c(S(=O)(=O)N2CCCC2CNC(=O)C(=O)NCc2ccccc2C)c1 (stereo not drawn),-2,.,-0.1,.,.,
COc1ccc(C(=O)CCNc2ccc(F)cc2)cc1,2,2%,-0.8,.,.,
Cc1ccccc1NS(=O)(=O)c1ccc(NC(=O)c2nc3ncccn3n2)cc1,7,8%,1.2,7,-2,
CCC(NC(=O)c1ccc2nc(Cc3ccc(OC)cc3)oc2c1)c1ccncc1 (stereo not drawn),9,.,-0.7,.,.,
Cc1n[nH]c(=O)nc1NC(C)c1ccccc1 (stereo not drawn),-8,-1%,0.0,9,-19,
Cn1c(SCC(=O)N/N=C/c2ccco2)nc2ccccc21,-2,-5%,0.9,-2,.,
O=C(NC(Cc1ccccc1)C(=O)O)/C(=C\c1ccco1)NC(=O)c1ccco1 (stereo not drawn),4,-11%,-4.6,-2,.,
Nc1nc(-c2cc(-c3ccccc3)no2)cs1,40,.,-1.9,.,.,
COc1ccc(N2CCN(C(=O)c3nn(C)c4c3CS(=O)(=O)c3ccccc3-4)CC2)cc1,2,.,-3.6,.,.,
CCN(CC)C(=O)C1CCN(CC2CC=CCC2)CC1 (stereo not drawn),-9,0%,0.3,-1,-5,
CCOc1ccc(OCC)c(NC(=O)CN2CCN(c3cc(C)ccc3C)CC2)c1,2,>100µM*,5.4,14,-33,
O=C(NC1CCCc2ccccc21)c1ccc(S(=O)(=O)N2CCOCC2)cc1 (stereo not drawn),6,5%,.,16,.,
CC1CCCCN1Cc1c(C#N)c2ccccc2n1C (stereo not drawn),-6,-5%,4.6,-2,5,
O=C(NC(=S)Nc1c(Cl)ccc2nsnc12)c1ccco1,9,7%,-2.5,6,-16,
COc1nc(OC)nc(N2CCC(C(=O)Nc3cccc4c3CCCC4)CC2)n1,5,-20%,1.0,-22,-36,
CCN(Cc1nc(-c2ccccc2)no1)C(=O)c1ccc2c(c1)OCO2,-3,.,1.6,.,.,
COCCNc1nc2c(c(=O)n(Cc3cccc(Br)c3)c(=O)n2C)n1C,-7,.,0.0,.,.,
O=C(c1csc2c1CCCC2)N1CCN(c2ncccn2)CC1,-6,4%,0.4,-3,-11,
COc1cccc(C2C(C(=O)c3ccco3)=C(O)C(=O)N2CCN(C)C)c1OC (stereo not drawn),2,0%,0.1,5,-38,
CC(C)NC(=O)CCS(=O)(=O)c1ccc(Br)s1,4,0%,0.1,3,-18,
CCN(CC)CCN1C(=O)c2ccccc2NC1c1ccccc1F (stereo not drawn),-3,1%,-10,4,-14,
CC(=O)Nc1ccccc1NC(=O)c1cc(C)ccc1C,-2,-5%,-1.5,-5,.,
CC(C)Cn1c(-c2csc3c2CCCC3)n[nH]c1=S,?,.,-1.2,11,4,
Cc1c(C(=O)c2ccccc2)c2ccccn2c1CCC#N,-3,-1%,7.4,.,.,
O=C(O)/C=C/C(=O)Nc1cccc2cccnc12,6,7%,-1.4,.,.,
COc1ccc(NC(=O)Cc2nnc(SCC(=O)Nc3ccccc3)n2C)cc1,5,.,-0.3,.,.,
O=C(CN1C(=O)C2CCCCC2C1=O)Nc1cccc([N+](=O)[O-])c1 (stereo not drawn),-9,.,-0.7,.,.,
[2H]C(CCOS(N)(=O)=O)c1ccccc1 (stereo not drawn),-12,.,0.8,.,.,
COC(=O)c1sccc1NC(=O)Nc1ccc(F)cc1,-6,.,5.0,.,.,
COC(=O)[C@@H]1CCCN1Cc1nc(Cc2ccc(OC)c(OC)c2)no1,-9,-10%,0.8,-1,.,
O=c1ccc2cc3c(-c4ccccc4)coc3cc2o1,-1,.,-4.5,.,.,
Cc1ccc2nc(NCc3ccco3)c(C=NCc3ccco3)c(=O)n2c1,-8,-7%,-9.3,7,-8,
Cc1cc(C(F)(F)F)n(-c2nc(C(=O)Nc3cccnc3)cs2)n1,22,0%,-1.0,-1,.,
CCn1c(O)c(N=NC(=O)Cn2ccc(C(F)(F)F)n2)c2ccccc21,2,5%,2.0,5,-2,
COC(C(=O)Nc1ccc(Br)cc1F)c1ccccc1 (stereo not drawn),-7,-2%,1.1,-7,.,
CCOC(=O)c1cccc(-n2c(C)nc3ccccc3c2=O)c1,-10,-5%,-0.7,5,-53,
Cn1c(-c2ccccc2)cc2ccccc21,-4,.,-3.0,.,.,
Cc1cc(C)cc(OCC(=O)NCc2nc(-c3ccccc3)no2)c1,3,9%,1.8,1,5,
O=C(N/N=C/C(Br)=C/c1ccccc1)NC1CCCCC1,29,2%,15,-22,.,
Cc1ccc(CSc2nc3ccncc3[nH]2)cc1,4,5%,0.2,-6,-3,
CC#CCCCC(=O)Nc1ccccc1C(=O)O,26,15%,0.6,11,-50,

# This is a subset; count on the stated rates, not on these rows.
